Assay outcomes from PubChem BioAssay.
ClpP mod – qHTS Assay for Activators of ClpP | Potency, µM (series often up to 57.5 µM), without a hit: at the highest dose activity change, negative = active | AID 651965, 2013 | purified B. subtilis ClpP, FRET peptide cleavage, 20 min | actives 1.9% (n = 340,000); active = well fitted falling curve with a large enough effect; inconclusive = small, poorly fitted or top-dose-only effect; inactive = no such curve, though single readings can be large or run the other way; note: potency is the fitted concentration of half-maximal effect; the source files actives as falling curves though it sought activators and does not explain the sign; nearly all actives have a fitted effect of over 65% in size; many hits overshoot -100%
Target sequence (P80244 whole entry, looked up): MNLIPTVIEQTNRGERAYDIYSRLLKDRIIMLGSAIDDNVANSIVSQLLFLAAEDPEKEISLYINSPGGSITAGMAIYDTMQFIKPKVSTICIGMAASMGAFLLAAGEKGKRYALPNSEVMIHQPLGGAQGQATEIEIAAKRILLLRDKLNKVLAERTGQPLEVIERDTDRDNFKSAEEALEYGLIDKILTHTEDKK
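FRET quenching reversal measured ClpP activation: 10 microg/mL B. subtilis ClpP at pH 8 with the FRET-FV decapeptide, read at 430 nm after 320 nm excitation. The 20-min minus 0-min signal was scaled between DMSO/no-enzyme wells and ADEP (5.8 microM final).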
Sfp PPTase inh – qHTS Assay for Inhibitors of Bacillus subtilis Sfp phosphopantetheinyl transferase (PPTase). actives 3.5% (n = 310,000). 4'-phosphopantetheinyl transferase ffp (Bacillus subtilis), Q9F4F7. Biochemical Sfp PPTase activity, qHTS. AID 1490, 2009. Potency, µM, for inactives: max response, negative = inhibition, hits mostly inhibitors; active = well fitted inhibition curve with a large enough effect; inconclusive = small, poorly fitted or top-dose-only effect, or another doubt; inactive = no such curve, though single readings can be large or run the other way;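 note: the enzyme is Sfp with the accession as filed and its product quenches rhodamine fluorescence; potency is the fitted concentration of half-maximal effect; 0% = enzyme reaction without inhibitor and -100% = no enzyme wells; top concentration of the series not given in the record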
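With Hepes-Na pH 7.6 buffer containing 10 mM MgCl2, Sfp (15 nM) modified BHQ-2-YbbR (12.5 uM) using rhodamine-CoA (5 uM). Two reads 30 minutes apart at 525/598 nm yielded each well's rate.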
TRPML1 ag – qHTS for Agonists of the Human Mucolipin Transient Receptor Potential 1 (TRPML1) | Mucolipin-1 (Homo sapiens), Q9GZU1 | TRPML1-expressing cells, Ca2+ dye fluorescence, FDSS; host cell line not named in the record; reference of the full effect not given here | activation, % (test concentration not listed) | actives 0.12% (n = 410,000) | AID 624414, 2012; in the data active = activation above about 50%; inconclusive = about 30% to 50%; inactive = below about 30%; note: 0% is about no effect; the text of the record puts the active cut at 80%
Target sequence (Q9GZU1 whole entry, looked up): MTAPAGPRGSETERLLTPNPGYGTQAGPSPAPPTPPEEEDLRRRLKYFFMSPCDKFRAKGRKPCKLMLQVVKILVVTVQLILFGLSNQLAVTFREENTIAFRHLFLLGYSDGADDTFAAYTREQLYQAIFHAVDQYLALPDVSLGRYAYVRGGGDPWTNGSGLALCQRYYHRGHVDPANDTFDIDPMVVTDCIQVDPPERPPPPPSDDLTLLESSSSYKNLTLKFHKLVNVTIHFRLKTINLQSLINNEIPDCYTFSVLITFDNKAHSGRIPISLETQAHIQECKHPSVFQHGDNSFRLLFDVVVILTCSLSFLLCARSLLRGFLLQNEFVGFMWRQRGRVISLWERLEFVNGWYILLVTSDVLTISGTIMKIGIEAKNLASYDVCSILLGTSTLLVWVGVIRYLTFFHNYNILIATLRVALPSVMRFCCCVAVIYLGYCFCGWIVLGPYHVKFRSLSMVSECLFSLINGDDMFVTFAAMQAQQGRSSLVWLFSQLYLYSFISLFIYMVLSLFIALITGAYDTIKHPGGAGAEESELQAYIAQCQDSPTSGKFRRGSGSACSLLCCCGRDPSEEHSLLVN
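Tetracycline-induced TRPML1-DL cells are seeded and incubated overnight before loading with a no-wash Ca2+ dye and quencher. Agonist activity is taken from the 110 s fluorescence read following compound pin-transfer on an FDSS, before EC80 54-4 challenge.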
Menin MLL FP FL – qHTS Assay for Inhibitors Targeting the Menin-MLL Interaction in MLL Related Leukemias: Competition With Fluorescein Labeled MLL-derived Peptide; FP activity change, % at 61.4 µM; Fluorescence polarization, fluorescein-MLL peptide displacement from menin; 290,000 tested, under 10 active; inconclusive = falling polarisation curve, or a change in total fluorescence; inactive = total fluorescence flat and polarisation flat or rising; no compound was filed as active; the % refers to the polarisation; negative = inhibition;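 note: % of control where 0% means no effect; inhibitors lower the polarisation; unlabelled MLL peptide was the positive control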
PINK1 expr mod – A Quantitative High throughput Screen to Identify Chemical Modulators of PINK1 Expression. Potency, µM (titrated, usually from 76.6 µM), for inactives: top-dose activation (PINK1 increase), usual class: activators. actives 0.2% (n = 410,000). PINK1 immunofluorescence, high-content cytometry, 24 h. AID 624263, 2012; active = well fitted activation curve with a large enough effect; inconclusive = small, poorly fitted or top-dose-only effect; inactive = flat fitted curve, though single readings scatter; cell line not stated here;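 note: potency is the fitted concentration of half-maximal effect; % of control where 0% means no effect; nearly all actives have a fitted effect of over 65% in size; a mitochondrial uncoupler was the plate control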
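Readout is PINK1 immunofluorescence, quantified alongside mitochondrial, cell and nuclear markers by laser-scanning microplate cytometry. Cells from a stable line were exposed to compound titrations (5 concentrations) for 24 hours, with CCCP controls.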
TRPV1 potentiator – HTS Assay for Compounds that Act as Potentiators of the Vanilloid Receptor 1; AID 540277, 2011; potentiation, % at 8.33 µM; TRPV1-expressing cells, Fluo-8 calcium influx, capsaicin EC20 potentiation; host cell line not named in the record; control for the full effect not named in the record; Transient receptor potential cation channel subfamily V member 1 (Homo sapiens), Q8NER1; actives 0.02% (n = 320,000); active means potentiation above 80%; inconclusive means 30% to 80%; inactive means below 30%; note: 0% is about no effect
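Fluo-8 calcium influx in TRPV1-expressing cells, kinetic read (ex 480/em 520 nm). Compound added and read 3 min for agonist activity, followed by capsaicin at EC20 final and 2 min further read for enhancement.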
TRPML1 inh – qHTS for Inhibitors of the Human Mucolipin Transient Receptor Potential 1 (TRPML1). activity change, negative = inhibition, % (no concentration beside the values). TRPML1-inducible cells, Ca2+ dye fluorescence, FDSS; active compounds read low; inhibition of EC80 agonist-evoked calcium signal. Mucolipin-1 (Homo sapiens), Q9GZU1. actives 0.02% (n = 390,000). AID 624415, 2012; in the data active means activity change below about -50%; inconclusive means about -30% to -50%; inactive means above about -30%;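 note: stimulus is agonist 54-4 at its EC80 concentration; % is set by controls: 0 for no effect and ±100 for the full control effect; compound concentration not given in the record; the text of the record puts the active cut at -80%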
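Calcium fluorescence in TRPML1-DL cells induced overnight with Tet: a 110 s read after compound pin addition, then a 110 s antagonist read after challenge with 54-4 at 4 uM final (EC80).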
* = called active by the depositor; ? = inconclusive; nt = not tested or not shown; & = joins results of further samples; ! = repeats disagree; [ ] = another dose, or the depositor's remark.

SMILES | ClpP mod | Sfp PPTase inh | TRPML1 ag | Menin MLL FP FL | PINK1 expr mod | TRPV1 potentiator | TRPML1 inh
Cc1ccc(CCNC(=O)c2sc3ncccc3c2-n2cccc2)cc1 | 3.3% | nt | 2.5 | nt | 5.1% | nt | 33
CC1(C)Cc2c(C#N)c(SCCC#N)nc(N3CCOCC3)c2CO1 | -2.6% | ? | -0.9 | -5.0 | 2.1% | -13 | 15
Cc1ccc(CNS(=O)(=O)c2ccc3c(c2)C(C)(C)C(=O)N3C)cc1 | -1.3% | 10% | 2.4 | -6.0 | -2.8% | -10 | -20
O=C(NCc1ccc(F)cc1)C(=O)NCC(c1cccs1)S(=O)(=O)c1cccs1 (configuration not stated) | -0.2% | nt | 0.1 | nt | 0.6% | nt | 6
O=C(COC(=O)c1oc2ccccc2c1COc1ccccc1)NCCN1C(=O)CSC1=O | 0.9% | -8% | -0.5 | -2.6 | 0.9% | -1 | -6
CCc1cccc(NC(=O)Cn2c(=O)n(CC3CCC(C(=O)NCCc4ccccc4)CC3)c(=O)c3ccccc32)c1 (configuration not stated) | -11% | nt | 2.4 | nt | 1.2% | nt | -8
O=C(O)c1ccccc1N=Nc1ccc(O)cc1 | 0.9% | nt | -0.4 | nt | -0.6% | nt | -2
CCOC(=O)C1=NOC2C3CC(C12)C1C(=O)N(CCc2ccc(OC)c(OC)c2)C(=O)C31 (configuration not stated) | -0.1% | 9% | -0.1 | 1.4 | -0.2% | -2 | 13
CC(C)CC(=O)NC(=S)Nc1ccc(N2CCN(C(=O)c3cccs3)CC2)cc1 | -2.7% | -19% | 0.4 | 0.6 | -2.4% | 13 | 20
O=C(Cn1cc(SCc2ccc(F)cc2)c2ccccc21)N1CCOCC1 | 2.8µM* | ? | -0.2 | 0.0 | 1.2% | 14 | -2
COc1ccc(C(=O)Nc2ccc(NC(=O)c3ccccc3)cc2)cc1S(=O)(=O)N1CCOCC1 | nt | 8% | 0.0 | nt | 8.4% | -3 | 11
CN(C)S(=O)(=O)c1ccc(Cl)c(NC(=O)C2CCN(S(=O)(=O)c3cccs3)CC2)c1 | -2.5% | nt | 2.4 | nt | 1.4% | -1 | 4
O=C(Nc1cc(Cl)ccc1N1CCOCC1)c1cc2ccccc2o1 | nt | -40% | -0.3 | nt | 4.1% | 4 | -22
COc1ccccc1Nc1cc(C(=O)N2CCc3ccccc3C2)c2ccccc2n1 | nt | 9% | nt | 1.1 | nt | -1 | nt
COc1cccc(NC(=O)CNC(=O)c2ccc(OC)c(OC)c2)c1 | nt | -5% | -0.5 | -0.7 | -0.4% | 1 | -2
COCCn1c(C)c(C)c2c(NCCc3ccccc3)ncnc21 | -2.4% | ? | 2.8 | nt | 1.3% | 10 | 6
COc1ccc(C2=NS(=O)(=O)N(C)C(C(=O)N3CCOCC3)=C2)cc1OC | -1.4% | 23% | 0.2 | 0.2 | 0.2% | -2 | -7
CC1(C)CC(=O)CC(=Nc2ccc3[nH]c(=O)[nH]c3c2)C1 | -1.0% | -4% | -0.4 | -2.2 | 1.0%[38.3 µM] | 21 | 0
O=C(Nc1ccccc1C(=O)N1CCOCC1)c1cc2ccccc2o1 | -0.3% | 16% | 0.5 | 3.0 | 2.6% | 1 | 16
O=C(CCc1ccccc1)N=C1SC2CS(=O)(=O)CC2N1Cc1ccccc1 (configuration not stated) | -1.9% | 4% | 3.4 | 2.1 | 5.4% | -5 | -14
CCn1cc(/C=C(\NC(=O)c2ccc(OC)cc2)C(=O)N2CCN(C)CC2)c2ccccc21 | 0.9% | 5% | 0.5 | -1.4 | 1.5% | 4 | 14
COc1ccc(S(=O)(=O)c2nnn(-c3ccccc3F)c2C)cc1 | -1.1% | nt | -1.3 | nt | 0.9% | nt | -6
CN(C)Cc1nc2c(c(=O)[nH]1)C(C)(C)Cc1ccccc1-2 | -3.9% | -22% | -0.1 | -1.4 | 1.2% | 21 | 37
Cc1cc(=O)oc2c3c(cc(OCC(=O)NCc4ccccn4)c12)OC(C)(C)CC3 | 4.0% | 9% | -0.3 | 4.8 | 2.0% | 5 | 26
O=C(Nc1cc(C(F)(F)F)ccc1N1CCOCC1)c1c(F)c(F)c(F)c(F)c1F | -0.4% | 10% | 1.0 | -4.4 | 0.1% | -7 | 22
COc1c2ccc(C(=O)NCCCCc3ccccc3)cc2nn1C | 3.9% | 15% | 0.1 | 1.9 | 0.7% | 8 | -1
COc1cc(/C=C2\SC(=S)N(N3CCOCC3)C2=O)ccc1O | -0.6% | 2% | 10 | ? | 4.9% | -13 | 71
CC(C)CC(=O)N1CC(=O)Nc2ccc(F)cc2C1c1ccccc1 (configuration not stated) | -2.4%&-1.6% | 9% | 1.2&-0.8 | -0.7 | 0.2%&2.2% | 8 | 37&-15
CCOC(=O)COc1cccc2c(=O)n(CC(=O)NCCc3ccccc3)ccc12 | -0.4% | 6% | -0.6 | 3.9 | -0.2% | 4 | 10
CCOC(=O)C1CCN(c2cc(C)nc3ccc(OC)cc23)CC1 | nt | 15% | 0.0 | -1.6 | 0.1% | 13 | 6
CCCCn1c(N)c(N(CC(C)C)C(=O)c2ccc(N(C)S(=O)(=O)c3ccc(C)cc3)cc2)c(=O)[nH]c1=O | 1.2% | nt | 0.8 | nt | 5.6% | 5 | -3
O=C(CSc1nnc2scc(-c3ccc(Cl)cc3)n12)NCc1ccco1 | -0.7% | 6% | 1.0 | -1.8 | -2.9%[38.3 µM] | 1 | -14
CC(C)Cc1nnc(NS(=O)(=O)Cc2ccccc2)s1 | -0.6% | -6% | 0.3 | -0.4 | -2.2%[38.3 µM] | -11 | -3
CCc1ccccc1NC(=O)CCC(=O)N1CCSc2ccccc21 | 1.5% | -4% | 0.6 | -7.4 | 1.4% | 21 | 11
O=C(c1sc2ccccc2c1Cl)N(Cc1ccccc1)C1CCS(=O)(=O)C1 (configuration not stated) | -0.8% | -7% | -0.5 | 1.9 | -3.2% | -4 | -3
C=C1CCC2[C@](C)(CO)[C@H](O)CC[C@@]2(C)[C@@H]1C/C=C1\C(=O)OC[C@H]1O (some centres not stated) | 1.7% | nt | nt | nt | 5.4% | -4 | nt
Cc1cccc(N(C)C(=O)C2CCN(S(=O)(=O)c3cccc4nonc34)CC2)c1 | 0.6% | nt | 2.2 | nt | 0.9% | nt | 19
O=C(Nc1nnc([C@H]2C[C@H](O)[C@@H](CO)O2)s1)c1cccc(Oc2ccccc2)c1 | -13% | nt | -0.4 | nt | 1.1% | nt | nt
CCOC(=O)c1[nH]c(C)c(CCC(=O)Nc2cc(C)ccc2OC)c1C | -11% | nt | 0.1 | nt | 5.1% | nt | 2
CN(Cc1ccccc1)S(=O)(=O)c1ccc(N2CCCC2=O)cc1 | 0.4% | nt | 0.3 | nt | 0.4% | -6 | 2
Cc1ccccc1CN1CCN(CC(=O)NCc2ccccc2Cl)C1=O | -2.0% | nt | 1.7 | nt | 1.2% | nt | -25
CC(=O)NNc1ncnc2c1cnn2-c1ccc(C)c(C)c1 | nt | 11% | -0.8 | 1.0 | 0.9% | 7 | -19
O=C1c2ccccc2NC(c2ccc(O)cc2)N1Cc1ccco1 (configuration not stated) | 32µM*! | -20% | -0.7&0.6 | 1.8 | 0.6% | -11 | 6
O=C(Cn1c(C(F)(F)F)nc2ccccc21)c1ccc(Cl)cc1 | -0.5% | -8% | 0.3 | -1.3 | ? | -9 | -7
CCc1nn(CC(=O)NC(C)C)c(=O)c2cc3cc(F)ccc3n12 | -24% | nt | -0.4 | nt | 0.0% | nt | 8
COc1ccccc1CNC(=O)Cn1c(=O)ccc2cc(S(=O)(=O)N3CCC(C)CC3)ccc21 | -13% | nt | 0.5 | nt | -3.8% | nt | -9
O=C(CC(c1ccccc1)c1ccccc1)Nc1ccc(Cl)cn1 | -2.8% | -19% | 1.4 | -0.7 | 1.3% | -19 | -3
CCc1ccc(NC(=O)CN2CCN(c3ccc(OC)cc3)CC2)cc1 | nt | nt | -0.3 | nt | 2.2% | nt | 0
O=C1NC2C3CC(c4ccccc43)C12 (configuration not stated) | -0.8% | nt | 0.0 | nt | -0.6% | nt | 24
Cc1ccc(S(=O)(=O)N(C(=O)c2ccncc2)c2ccc(OC(=O)c3ccncc3)cc2)c(C)c1 | 0.7% | -13% | 3.6 | -2.1 | 6.1% | -9 | 4
CCOC(=O)Nc1ccc2c(c1)N(C(=O)CCN(C)C)c1ccccc1CC2 | -3.6% | 6% | -0.2 | -3.0 | -0.5% | 7 | -10
Cc1cc(C)cc(OCC(O)CN2CCN(C(=O)c3ccco3)CC2)c1 (configuration not stated) | -3.2% | 1% | 1.2 | 7.3 | 0.0% | 17 | -20
c1ccc2c(c1)Cn1nc(Cc3nc4c(s3)CCCC4)nc1-2 | -1.9% | 0% | 1.2 | -0.8 | -1.1% | 22 | 15
COc1ccc(NC(=O)CN(C)C(=O)c2cccc(NS(=O)(=O)c3ccc(Br)cc3)c2)cc1 | 0.5% | nt | 0.3 | nt | 2.4% | -3 | -2
Cc1ccc2nc3n(c2c1)CCCN3 | -2.7% | nt | -0.4 | nt | 1.2% | 24 | -12
Cc1ccc(N(CC(=O)N=Nc2c(O)[nH]c3ccccc23)S(C)(=O)=O)c(C)c1 | nt | 5% | -0.8 | 0.2 | 1.6% | 3 | 5
Cc1cccc(CNC(=O)c2ccccc2NC(=O)C2=CSCCO2)c1 | 0.2% | 5% | 2.2 | nt | 5.2% | -11 | -3
CC(C)c1nnc(NC(=O)CCC(=O)NC2CCCCC2)s1 | 1.1% | 14% | 0.0 | -0.9 | -1.1% | 5 | -2
Cc1nn(-c2ccc(N3CCCC3)nn2)c(C)c1CCC(=O)N1CCN(c2ccccc2F)CC1 | -5.0% | nt | -0.9 | nt | 4.9% | nt | -6
